# From PubChem
# ClpP mod – qHTS Assay for Activators of ClpP; ATP-dependent Clp protease proteolytic subunit (Bacillus subtilis (strain 168)), P80244; purified B. subtilis ClpP, FRET peptide cleavage, 20 min; Potency, µM (top dose mostly 57.5 µM), inactives show top-dose activity change, negative = active; hit rate 1.9% among 340,000; AID 651965, 2013; active = well fitted falling curve with a large enough effect; inconclusive = small, poorly fitted or top-dose-only effect; inactive = no such curve, though single readings can be large or run the other way; also: potency is read from the fitted curve at half-maximal effect; the source files actives as falling curves though it sought activators and does not explain the sign; nearly all actives have a fitted effect of over 65% in size; many hits overshoot -100%
# Target sequence (P80244 whole entry, looked up): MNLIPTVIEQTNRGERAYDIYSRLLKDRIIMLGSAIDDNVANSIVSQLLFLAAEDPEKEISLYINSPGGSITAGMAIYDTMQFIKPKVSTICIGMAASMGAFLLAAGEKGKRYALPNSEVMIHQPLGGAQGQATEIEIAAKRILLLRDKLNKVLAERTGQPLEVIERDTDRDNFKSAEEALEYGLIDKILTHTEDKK
#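 FRET quenching reversal measured ClpP activation: 10 microg/mL B. subtilis ClpP at pH 8 with the FRET-FV decapeptide, read at 430 nm after 320 nm excitation. The 20-min minus 0-min signal was scaled between DMSO/no-enzyme wells and ADEP (5.8 microM final).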
# gsp antag – antagonists of gsp mutant (McCune-Albright syndrome); hit rate 0.4% among 340,000; Potency, µM (top dose mostly 76.9 µM), inactives show top-dose activity change, negative = inhibition, actives largely listed as inhibitors; gsp-mutant cells, cAMP HTRF, 30 min; control for the full effect not named in the record; active = falling curve of any shape with a large fitted effect; inconclusive = falling curve, mostly with a smaller effect; inactive = flat or rising curve; cell line not stated here;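 also: intracellular cAMP measured with PDE inhibitor Ro 20-1724 present during compound exposure; potency is read from the fitted curve at half-maximal effect; % is scaled to controls: 0 for no effect and ±100 for the full control effect; nearly all actives have a fitted effect of over 65% in size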
#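 Measurement of cellular cAMP by homogeneous time-resolved fluorescence following a 30 min compound exposure at 37C. The PDE inhibitor […] was present throughout; the assay buffer was DPBS with 0.05% BSA and 0.005% Tween 20.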
# gsp agonist – agonists of gsp mutant (McCune-Albright syndrome); Potency, µM (top dose mostly 76.9 µM), without a hit: top-dose activation (cAMP increase), actives largely listed as activators; hit rate 0.13% among 340,000; gsp mutant cells, cAMP HTRF, 30 min; control for the full effect not named in the record; active = well fitted activation curve with a large enough effect; inconclusive = small, poorly fitted or top-dose-only effect, or another doubt; inactive = no such curve, though single readings can be large or run the other way; cell line not stated here;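 also: phosphodiesterase inhibitor Ro 20-1724 added with compounds to block cAMP breakdown; potency is read from the fitted curve at half-maximal effect; nearly all actives have a fitted effect of over 60% in size; about a fifth of the inactives were tested at one dose only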
#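 Cells stably selected in G418 were plated at 2000/well, grown 16-24 hr, then given compounds in DMSO with the PDE inhibitor […] (300 uM solution added) for 30 min at 37C; cAMP was read by HTRF.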
# D2 PAM – potentiates the human D2 dopamine receptor allosterically; DiscoveRx D2 beta-arrestin cells, luminescence, 90 min; 100% = 57 uM dopamine signal; hit rate 0.23% among 360,000; potentiation, % (concentration not given with the values); active = potentiation of 50% or more; inconclusive = 30% to 50%; inactive = 30% or less;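 also: compound concentration not given in the record; tested on top of an EC20 dose of dopamine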
# Target sequence (P14416 whole entry, looked up): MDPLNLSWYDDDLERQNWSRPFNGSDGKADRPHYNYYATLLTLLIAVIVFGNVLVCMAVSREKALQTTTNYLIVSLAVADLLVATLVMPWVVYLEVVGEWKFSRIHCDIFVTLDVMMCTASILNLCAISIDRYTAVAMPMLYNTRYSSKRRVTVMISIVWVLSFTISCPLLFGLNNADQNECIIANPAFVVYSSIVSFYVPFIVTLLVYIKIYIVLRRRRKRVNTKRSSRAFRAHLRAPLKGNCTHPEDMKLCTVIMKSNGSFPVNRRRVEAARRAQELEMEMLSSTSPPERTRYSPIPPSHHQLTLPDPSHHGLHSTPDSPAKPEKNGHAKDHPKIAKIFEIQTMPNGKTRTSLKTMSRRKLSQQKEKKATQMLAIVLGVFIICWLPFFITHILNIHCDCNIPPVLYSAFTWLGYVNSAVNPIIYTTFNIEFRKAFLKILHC
#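 PathHunter beta-arrestin assay in DiscoveRx D2 cells. Compounds were added with an EC20 of dopamine (50 nM final) for 90 min at 37 deg C. Luminescence was read 1 h after detection reagent, with 57 uM dopamine as the EC100 control.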
# Sfp PPTase inh – blocks B. subtilis Sfp PPTase activity; Q9F4F7; Biochemical Sfp PPTase activity, qHTS; Potency, µM, without a hit: max response, negative = inhibition, most hits filed as inhibitors; hit rate 3.5% among 310,000; AID 1490; active = well fitted inhibition curve with a large enough effect; inconclusive = small, poorly fitted or top-dose-only effect, or another doubt; inactive = no such curve, though single readings can be large or run the other way;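 also: the enzyme is Sfp with the accession as filed and its product quenches rhodamine fluorescence; potency is read from the fitted curve at half-maximal effect; 0% = enzyme reaction without inhibitor and -100% = no enzyme wells; top concentration of the series not given in the record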
#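 Compounds were incubated with enzyme (final 15 nM) for 15 min at room temperature before substrate addition started the reaction. Fluorescence at 525 nm excitation, 598 nm emission was recorded immediately and after 30 minutes.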
# Menin-MLL FL inh – menin-MLL binding inhibition, fluorescein peptide; Fluorescence polarization, fluorescein-MLL peptide displacement from menin; 290,000 tested, under 10 active; FP activity change, % at 61.4 µM; AID 1766; inconclusive = falling polarisation curve, or a change in total fluorescence; inactive = total fluorescence flat and polarisation flat or rising; no compound was filed as active; the % refers to the polarisation; negative = inhibition;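 also: % of control where 0% means no effect; inhibitors lower the polarisation; unlabelled MLL peptide was the positive control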
# TRPV1 potentiator – enhances activation of the human vanilloid receptor TRPV1; potentiation, % at 8.33 µM; AID 540277; TRPV1-expressing cells, Fluo-8 calcium influx, capsaicin EC20 potentiation; host cell line not named in the record; control for the full effect not named in the record; hit rate 0.02% among 320,000; Q8NER1; active means potentiation above 80%; inconclusive means 30% to 80%; inactive means below 30%; also: 0% is about no effect
#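 TRPV1-expressing cells were cultured overnight at 35.5C and loaded with Fluo-8 calcium dye for 40 to 90 min at room temperature. After a 10 s baseline, compound was added and calcium influx was read kinetically for 3 min (ex 480/em 520 nm).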
# The depositor's hits bear a star; ? = inconclusive; · = not tested or not shown; & = joins results of further samples; [ ] = another dose, or the depositor's remark.
# Second line of a record – gsp antag	Sfp PPTase inh	gsp agonist	Menin-MLL FL inh	D2 PAM	ClpP mod	TRPV1 potentiator
Cc1cc(NC(=O)c2ccco2)c(=O)n(Cc2c(F)cccc2Cl)c1
→ 2%	-2%	-2%[15.4 µM]	2.2	-8	·	-9
CC(C)c1ccc2nc(NC(=O)C3CC3)sc2c1
→ 0%	-3%	-22%	-2.2	-6	-1.2%	-15
Cc1noc(C)c1COc1ccc(C(=O)OCC(N)=O)cc1
→ 6%	6%	9%[15.4 µM]	0.4	-7	·	-2
O=C(C1CCN(S(=O)(=O)c2cccnc2)CC1)N1CCN(c2cccc(Cl)c2)CC1
→ -15%	9%	12%	2.8	5	0.2%	·
CCCCNc1c(-c2cccc(SC(C)CC)c2)nc2ccc(Cl)cn12 (stereo unspecified)
→ -11%	·	8%	·	-14	-5.2%&-11%	·
Cc1ccccc1C(=O)NC(=S)Nc1ccc(N2CCN(C(=O)c3ccccc3)CC2)cc1
→ -3%	14%	1%[15.4 µM]	4.5	-6	1.0%	-5
O=C(CN(C1CC1)S(=O)(=O)c1ccc(S(=O)(=O)N2CCCCCC2)cc1)Nc1ccccc1
→ 1%	21%	?	-0.6	2	-0.5%	12
COc1ccc(CN([C@H](CO)CC(C)C)S(=O)(=O)N(Cc2ccccc2)[C@H](CO)CC(C)C)cc1
→ -8%	·	·	·	-7	-4.6%&-0.7%	·
CCOC(=O)c1ccc(NC(=O)Oc2cc(C)c(Cl)cc2C(C)C)cc1
→ -14%	17%	-52%	5.6	-15	-7.3%	?
COc1ccc(-c2noc(CCC(=O)O)n2)cc1
→ -12%	4%	-47%[inhibitor]	4.0	-26	-1.0%	-7
CCOC(=O)c1nc2ccccc2nc1C
→ 6%	4%	4%	·	13	0.2%	-2
Cc1cc(NC(=O)COC(=O)CCS(=O)(=O)c2ccc(C)c(C)c2)no1
→ 7%	22%	-6%[15.4 µM]	0.0	-9	·	9
Cc1ccc(C(=O)NNC(=O)c2cccc(C)c2)cc1
→ 6%	3%	1%	6.7	-2	·	10
Cc1c(O)ccc2c(=O)c(-c3nncn3-c3ccccc3)coc12
→ 1%	18%	10%	-8.4	-10	-7.4%	1
Cc1cccc(Nc2nc3ccccc3n3nnnc23)c1
→ -4%	3%	13%	3.1	-8	4.0%	6
COc1ccc(C(=O)NC2CC2)cc1OC1CCN(Cc2ccc(NC(C)=O)cc2)CC1
→ 16%	16%	-38%	0.7	-16	-0.1%	8
Cc1sc(N)c(C(=O)c2ccccc2Cl)c1C
→ -21%	-10%	11%	4.1	-3	·	9
CC(=O)c1ccccc1NS(=O)(=O)c1cccc2nonc12
→ -2%	7%	-3%	·	-11	-1.5%	-1
Cc1ccc(S(=O)(=O)C(CNC(=O)C(C)C)c2cccs2)cc1 (stereo unspecified)
→ 3%	8%	?	-1.4	-18	-0.1%	1
Cc1cccc(C)c1NC1=NC(=S)N(c2ccccc2)C12CCOC(C)(C)C2 (stereo unspecified)
→ -9%	23%	24%	0.6	-9	-1.0%	-13
C=CCn1c(CNC(=O)c2cccs2)n[nH]c1=S
→ 3%	-18%	-57%[inhibitor]	-3.0	-9	-8.8%	11
Cc1ccccc1NC(=S)NC(C)C(c1ccccc1)N1CCN(C)CC1 (stereo unspecified)
→ -5%	13%	20%[15.4 µM]	-4.5	-12	0.6%	6
CCOC(=O)CSc1nc2sc3c(c2c(=O)n1-c1ccc(C)cc1)CCN(C)C3
→ -8%	-12%	?	4.7	-12	3.2%	-6
O=P(COCCOCCOCCOCP(=O)(c1ccccc1)c1ccccc1)(c1ccccc1)c1ccccc1
→ -2%	19%	-27%	-1.7	-3	0.5%	5
Cc1cccc2c1N(CCCOc1ccc(C(C)(C)C)cc1)C(=O)C2=O
→ 2%	?	?	2.8	-33	-2.9%	-3
C=CCNC(=O)COC(=O)c1oc2ccccc2c1CSC1CCCCC1
→ -3%	-1%	-12%[15.4 µM]	4.5	-9	1.1%	-2
COc1cccc(Cn2cc(-c3cccc(C(F)(F)F)c3)nn2)c1
→ -16%	-7%	4%	2.5	-2	-3.1%&2.5%	2
C/C=C/c1cc(OC)c2c(c1)[C@H](C)[C@@H](c1ccc(O)c(OC)c1)O2
→ -11%	·	·	·	-25	-0.8%	·
Cc1cc(NC(=O)CCC(=O)N(CC(=O)NCC2CCCO2)c2ccccc2)no1 (stereo unspecified)
→ 6%	-6%	8%[15.4 µM]	-3.1	-6	-0.6%	-4
COC(=O)c1ccc(NC(=O)N2CCC(O)(c3cccnc3)CC2)cc1
→ 7%	1%	-5%	4.0	-18	-1.9%	7
COC(=O)CCc1c(C)c(C(=O)c2ccc(F)cc2)c2ccccn12
→ -22%	7%	8%[15.4 µM]	-1.7	-4	·	-1
COc1cc(OC)c2c(c1)S(=O)(=O)C(c1ccccc1)=C2N
→ -11%	15%	20%	-1.0	-5	-2.0%	12
Cc1ccc(NCc2nnc(SCC(=O)c3ccccc3)n2Cc2ccco2)c(C)c1
→ -27%	-13%	-2%	6.9	-10	-3.8%	10
COc1ccc(S(=O)(=O)NC(N)=NCCc2ccc(OC)c(OC)c2)cc1C
→ 9%	0%	10%[15.4 µM]	3.0	-10	·	0
CCN1C(=O)[C@@H]2[C@@H](c3ccc(-c4ccc(F)cc4)c(OC)c3)N3CCC[C@@]3(C(=O)OC)[C@@H]2C1=O
→ -17%	·	·	·	-36	2.2%	·
CCOc1ccc2c(c1)OC1(CCC(C)C1)CC2=O (stereo unspecified)
→ -2%	·	15%	·	-6	-23%	·
CN(Cc1ccco1)S(=O)(=O)c1ccc2c(c1)CCN2C(=O)CCC(=O)O
→ -4%	15%	-20%	4.6	-11	-1.4%	8
CCOc1c2ccc(C(=O)NC3CCCc4ccccc43)cc2nn1C (stereo unspecified)
→ 8%	17%	0%	1.6	4	3.9%	5
Cc1cc(C)c(NC(=O)C2CCCN2C(=O)NC2CCCCC2)c(C)c1 (stereo unspecified)
→ -6%	12%	-55%[inhibitor]	3.8	15	0.1%	-4
Cc1nc2ccc(NS(=O)(=O)c3c(C)c(C)cc(C)c3C)cc2s1
→ ?	-27%	-19%	2.7	-3	0.2%	20
O=C(Cn1cc2c(n1)CCCCC2)N1CCc2ccccc2C1
→ -7%	18%	17%	0.1	0	0.1%	-13
CCOC(=O)CN1CC23C=CC(O2)C(C(=O)N2CCN(c4ccc(F)cc4)CC2)C3C1=O (stereo unspecified)
→ 6%	4%	-32%[inhibitor]	0.8	-5	-0.7%	-11
Cc1ccc(C(=O)C2CCN(S(=O)(=O)c3ccccc3C(=O)O)CC2)cc1
→ 11%	23%	-47%[inhibitor]	1.1	-16	-1.5%	1
CCC1OC(=O)C(C)C(OC2C[C@@](C)(OC)C(O)C(C)O2)C(C)C(O[C@@H]2OC(C)CC(N(C)C)C2O)[C@](C)(O)CC(C)C(=NOCOCCOC)C(C)C(O)[C@]1(C)O (stereo partly specified)
→ 10%	·	·	·	-11	-1.4%	11
CCCCN(C(=O)CSc1nn(-c2ccc(F)cc2)c(=S)s1)c1c(N)n(CCCC)c(=O)[nH]c1=O
→ -2%	·	-11%[15.4 µM]	·	-17	·	7
COc1ccc(CNC(=O)c2csc(Cc3ccccc3)n2)cc1
→ 1%	9%	0%	-1.3	-13	-1.2%	-8
CCOC(=O)C1CCN(CC(C)(C)NS(=O)(=O)c2ccc(Cl)cc2)CC1
→ 5%	-2%	5%[15.4 µM]	-0.3	-9	1.5%	8
O=c1c2ccccc2nc2n1CCO2
→ 9%	27%	9%[15.4 µM]	-1.9	-4	-1.9%	0
COC(=O)COc1nc(C)c(Br)c(OC)n1
→ 0%	6%	13%	-1.8	3	0.2%	2
CCOc1ccc(-n2cnc3sc(C)c(C)c3c2=O)cc1
→ 2%	4%	-7%	5.9	1	·	-15
Cc1ccccc1C(=O)NNC(=O)c1cccc([N+](=O)[O-])c1
→ ·	19%	-24%[15.4 µM]	-4.0	-23	·	-8
O=C(C1CCN(C2CCN(Cc3ccc4c(c3)CCO4)CC2)CC1)N1CCOCC1
→ 5%	10%	19%	-0.1	-4	·	7
O=C(OC(C(=O)NCC1CCCO1)c1ccccc1F)c1ccco1 (stereo unspecified)
→ 0%	2%	-25%	-3.1	-7	0.3%	-2
COc1ccc(CCN2CC(C(=O)NCCN3CCCC3=O)CCC2=O)cc1 (stereo unspecified)
→ 2%	21%	-5%[15.4 µM]	-8.3	-15	0.7%	-10
COc1ccc(/C=N/NC(=O)C(=O)N2CCCCCC2)cc1O
→ 5%	4%	-3%[15.4 µM]	·	-3	?	1
CN(C(=O)C1CCC(=O)N(Cc2cccc(F)c2)C1)C1CCCCC1 (stereo unspecified)
→ -1%	11%	6%	·	3	0.7%	9
O=C(O)CCN(CCC(=O)O)S(=O)(=O)c1ccccc1
→ 1%	7%	-44%[inhibitor]	1.0	13	-2.5%	-4
NC(=O)C(CC(=O)O)NC(=O)[C@@H]1CCCNc2c(I)cc([N+](=O)[O-])cc2C(=O)N[C@@H](CO)C(=O)N[C@@H](Cc2ccc(O)cc2)C(=O)N1 (stereo partly specified)
→ 15%	-10%	·	-0.6	-5	0.7%	29
O=C(NC1CC(=O)N(c2ccc(Cl)cc2)C1)C1CC1 (stereo unspecified)
→ -6%	·	-7%[15.4 µM]	·	0	·	6
CCCc1cc(=O)[nH]c(SCC(=O)N2CCC(C)CC2)n1
→ -8%	2%	-1%	-0.1	-6	-1.5%	4

# (continued)
# Second line of a record – gsp antag	Sfp PPTase inh	gsp agonist	Menin-MLL FL inh	D2 PAM	ClpP mod	TRPV1 potentiator
CN(C)c1nc(N(C)C)nc(N(C#N)Cc2ccc(Cl)cc2)n1
→ -2%	1%	-22%	3.3	-1	-0.3%	-16
COc1ccc2oc(C(=O)OCC(=O)N(C)CC(=O)Nc3ccc(C)cc3)c(C)c2c1
→ -20%	·	4%[15.4 µM]	·	-69	·	1
COc1cccc(OC)c1C(=O)Nc1ccc2c(c1)Cc1ccccc1-2
→ -32%	-13%	-7%[15.4 µM]	1.1	-6	·	-16
Cc1cc(NS(=O)(=O)c2ccc(NC(=O)c3cc(-c4cccnc4)nc4ccc(Cl)cc34)cc2)no1
→ -14%	-2%	-1%	6.3	-3	-0.3%	21
